# Source: PubChem BioAssay
# MT1-MMP act inh: blockers of MT1-MMP proenzyme processing, primary screen, HT1080 RFP-PRO-GFP cells, GFP/RFP fluorescence. Matrix metalloproteinase-14 (Homo sapiens), P50281. GFP/RFP ratio fluorescence, overnight; percent of plate control window, DMSO zero. GFP/RFP ratio change, % at 20 µM. 360,000 compounds, 0.061% hits. AID 651647, 2012;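 active = GFP/RFP ratio change of at least 30% with cell ATP level not reduced by more than half and red fluorescence within 50% of control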; also: strong numbers were not always called active
#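 Compound: 20 µM single dose, 1% DMSO / System: HT1080 RFP-PRO-GFP cells / Controls: DMSO and RFP-L50D-GFP cell wells / Read-out basis: GFP/RFP fluorescence ratio / Schedule: overnight compound exposure at 37 °C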
# CSC inhib: cancer stem cell viability inhibitors, primary screen, luminescence | cancer stem cell-like cells viability | inhibition, % at 7.5 µM | 300,000 compounds, 1.1% hits | AID 2717, 2010;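 active = mean at 75% or more and at least half the replicates too; inconclusive = mean and replicates disagree; tested in HMLE shEcad cells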;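 also: 0% = median of negative and 100% = median of positive control wells; the first replicate is given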
# Rce1 inhib: yeast Rce1p protease inhibitors, primary screen, biochemical, fluorescence, cell-free homogeneous. yeast membranes, quenched prenylated peptide cleavage fluorescence. calls only. 290,000 compounds, 0.27% hits;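 active = fall in fluorescence gain of 50% or more versus controls, with final raw signal at or below 3038400; inconclusive = same 50% fall but final raw signal above 3038400; inactive = fall in fluorescence gain under 50%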;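 also: plate controls were neutral control wells for no effect and wells lacking membranes for full effect; tested at 10 µM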
# eIF4H inh: human eIF4H binding inhibitors, primary screen, translation initiation inhibitor project, biochemical, uHTS, fluorescence polarization. Eukaryotic translation initiation factor 4H (Homo sapiens), Q15056. eIF4H fluorescence polarization binding assay. inhibition, % at 35 µM. 290,000 compounds, 0.94% hits. AID 2012, 2009;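 active = 50% or more with normal probe brightness, or confirmed in later tests; inconclusive = above 50% with abnormal brightness, or retests that disagree; inactive = below 50% or failed in later tests; about a fifth of its hits are not listed in these tables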;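 also: calls also rest on retests at 20 µM and on dose response follow-up; 0% = protein and probe with vehicle and 100% = probe without protein; strong numbers were not always called active; many hits fall short of the cut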
# PABP FP inh: PABP poly(A) RNA binding inhibitors, primary screen, biochemical, fluorescence polarization, uHTS; AID 2014, 2009; 290,000 compounds, 1% hits; inhibition, % at 35 µM;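 active = 50% or more with normal probe brightness, or confirmed in later tests; inconclusive = above 50% with abnormal brightness, or retests that disagree; inactive = below 50% or failed in later tests; about a fifth of its hits are not listed in these tables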;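 also: calls also rest on retests at 20 µM and on dose response follow-up; controls were probe without protein and protein plus probe with vehicle; some compounds called inactive have numbers as strong as hits; many hits fall short of the cut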
# Target sequence (P11940 whole entry, looked up): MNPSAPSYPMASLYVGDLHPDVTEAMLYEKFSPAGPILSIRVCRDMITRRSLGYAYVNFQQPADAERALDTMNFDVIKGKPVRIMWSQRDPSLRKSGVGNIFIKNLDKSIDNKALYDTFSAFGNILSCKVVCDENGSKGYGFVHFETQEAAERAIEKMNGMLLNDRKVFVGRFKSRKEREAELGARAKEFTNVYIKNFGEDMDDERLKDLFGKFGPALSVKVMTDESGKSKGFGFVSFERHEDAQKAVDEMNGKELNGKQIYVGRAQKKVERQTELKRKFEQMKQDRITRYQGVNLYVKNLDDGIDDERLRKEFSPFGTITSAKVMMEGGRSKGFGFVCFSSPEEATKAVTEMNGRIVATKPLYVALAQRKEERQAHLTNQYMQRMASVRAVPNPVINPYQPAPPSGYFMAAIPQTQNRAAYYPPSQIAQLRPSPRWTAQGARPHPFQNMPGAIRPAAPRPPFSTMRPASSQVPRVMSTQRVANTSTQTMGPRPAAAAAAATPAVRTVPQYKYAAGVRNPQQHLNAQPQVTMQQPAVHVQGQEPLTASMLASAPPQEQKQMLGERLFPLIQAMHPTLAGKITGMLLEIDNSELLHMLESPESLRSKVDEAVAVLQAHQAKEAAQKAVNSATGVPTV
# HIV Env fusion: inhibitors of HIV-1 Env-driven cell-cell fusion, primary screen, HeLa-JRFL effector, CEM21 target cells, luciferase; inhibition, % at 12.3 µM; 360,000 compounds, 1.1% hits; AID 651610, 2012;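 active = mean replicate inhibition score of at least 50 and every replicate individually at or above 50; inconclusive = only one of the two criteria met; inactive = mean below 50 and not all replicates reaching 50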;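 also: 0% = plate neutral controls and 100% = maraviroc near 300 nM; one replicate is shown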
# UUG fidelity: modulators of yeast start codon fidelity, primary screen, whole organism, S. cerevisiae, single point, plate reader; 350,000 compounds, 0.13% hits; activity score, % at 18.7 µM; S. cerevisiae UUG-firefly luciferase reporter, luminescence/redox ratio;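 active = replicate mean at a twofold rise or more, about +100% in these data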;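 also: firefly luciferase made from a UUG start codon reports start codon fidelity; reporter light over untreated wells divided by growth signal over untreated wells; some hits fall short of that in this replicate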
# eIF4H inh retest: further read-out of eIF4H inh, marked with its call; inhibition, %; compound at 20 µM; confirmation average;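 mean of two retest wells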
# PABP FP inh retest: also measured in PABP FP inh; calls as there; inhibition, %; compound at 20 µM; confirmation repeats;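 mean of two retest wells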
# MT1-MMP act inh RFP: recorded beside MT1-MMP act inh, whose call it bears; RFP signal change, %; measured here: RFP expression control read;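 0 = vehicle wells; hits needed this value within 50% of zero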
# Numbers without * were called inactive; i = inactive; ? = inconclusive; · = no result given. An excerpt. The share of hits here may be higher or lower than overall.
SMILES,MT1-MMP act inh,MT1-MMP act inh RFP,CSC inhib,Rce1 inhib,eIF4H inh,PABP FP inh,HIV Env fusion,UUG fidelity,others
C[C@H](NC(=O)NCCc1ccccc1)C(=O)O,1,3,-17,i,-8,-4,·,-17,
Cc1cc(C)n(-c2ccc(C(=O)Nc3cc(S(=O)(=O)N(C)C)ccc3Cl)cc2)n1,2,-9,17,i,-13,-30,·,·,
O=C(N/N=C/c1ccccc1Br)c1ccc(CSc2cccc3cccnc23)cc1,2,-5,-7,i,-4,-12,-26,-23,
O=C(OCC#CCSc1nnc(-c2cccc3ccccc23)o1)c1cccc2[nH]ccc12,6,2,·,·,·,·,30,-21,
Cn1c(N2CCOCC2)cc(=O)n(C)c1=O,2,4,-10,i,-6,-7,1,-21,
COc1ccc(CNCc2c(F)cccc2F)cc1OC,-2,1,·,i,2,-4,-9,-3,
COc1ccc(CNC(=O)COC(=O)c2c(NC(C)=O)sc(C)c2C)cc1,4,-1,·,·,·,·,-3,-5,
Nc1cc(-c2ccco2)no1,0,4,-10,i,·,·,14,-9,
CC(=O)Nc1ccc(S(=O)(=O)NC(CC(=O)NCCC2=CCCCC2)C(C)C)cc1 (centres undefined),3,2,3,i,-5,-4,·,14,
CCOC(=O)c1ccccc1NC(=O)COC(=O)CCC(=O)c1ccccc1,0,7,-1,i,4,-9,5,0,
O=C(CNc1cccc2ccccc12)c1ccc([N+](=O)[O-])cc1,6,9,-8,i,8,120,3,·,eIF4H inh retest=6;PABP FP inh retest=0
COc1cc(NC(=O)CN2CCN(c3ccccc3F)CC2)c(C)cc1[N+](=O)[O-],-1,-3,4,i,1,-10,3,·,
O=C1NC2(CCCCCC2)C(=O)N1CCS(=O)(=O)Oc1ccccc1,-3,1,-7,i,1,3,3,·,
COC(=O)c1ccc(C(=O)OC)c(NC(=S)N2CCN(C(=O)C3CCCO3)CC2)c1 (centres undefined),0,0,-8,i,-4,0,2,·,
COc1ccc(CCNC(C)C(=O)Nc2ccc(S(N)(=O)=O)cc2)cc1 (centres undefined),0,3,-5,i,3,1,24,-3,
CC(C)(C)c1ccc(NC(=O)CON=C(N)c2ccccc2)cc1,1,6,·,·,·,·,23,-3,
CCOC(=O)c1ccc(NC(=O)C2CCCO2)cc1 (centres undefined),0,0,-12,i,-6,-11,-11,3,
CCCS(=O)(=O)N1CCCC(C(=O)NCCc2cccc(C)c2)C1 (centres undefined),5,5,·,i,-3,-11,-1,-5,
CCCCN1CNC(=S)N(c2ccc(C(=O)OCC)cc2)C1,3,6,-4,i,-5,-4,·,·,
Cn1c(N)c(C(=O)COC(=O)COc2ccccc2C#N)c(=O)n(C)c1=O,2,4,-10,i,-1,7,8,·,
CC(C)[C@H](NC(=O)c1ccccc1Cl)C(=O)OCC(=O)NC(=O)NC1CCCC1,-1,0,·,i,6,-13,·,-13,
CCOC(=O)N1CCN(C(=O)CSCC(=O)Nc2nc(-c3ccc(Cl)s3)cs2)CC1,0,-8,3,i,-2,-9,20,·,
O=C(CSC1=NCCS1)N1CCN(c2ccc(Cl)cc2)CC1,2,-13,·,i,0,0,?,-15,
C=CCC[C@H](Cc1ccc(F)cc1)C(=O)OC[C@@H](Cc1c[nH]c2ccccc12)NC(=O)[C@@H](CC=C)CC(=O)N(CCO)Cc1ccccc1,-24,-19,79*,·,·,·,-126,-20,
CN(C(=O)COC(=O)CNC(=O)c1sc2ccccc2c1Cl)c1ccccc1,5,2,19,i,-3,-4,·,·,
N#Cc1cnn2c(N)c(-c3ccc(Cl)cc3)cnc12,3,0,0,i,-13,37,39,·,
O=C(Cn1cnc([N+](=O)[O-])c1)Nc1cc(Oc2ccc(Cl)cc2Cl)cc([N+](=O)[O-])c1,-5,-20,72,i,-15,-4,·,-13,
Cc1ccc(C)c(N2CCN(S(=O)(=O)c3ccc4c(c3)NC(=O)CC(=O)N4)CC2)c1,4,-6,-6,i,1,-5,9,8,
Cc1cccc(NC(=O)CNC(=O)CN2CCN(C)CC2)c1C,-3,1,-16,·,·,·,·,-16,
CSc1ccc(C#N)cc1NC(=O)c1ccccc1,-8,1,·,·,-8,-4,-1,-17,
Cc1ccc(S(=O)(=O)N2CCN(C(=O)CCCOc3ccc(Cl)cc3C)CC2)cc1,3,-6,13,i,·,·,15,·,
CCCCc1cc(=O)oc2cc(C)cc(OC(C)C(=O)NCc3ccccn3)c12 (centres undefined),-3,0,-13,i,-18,-4,18,-20,
O=C1NC(=NCc2ccccc2)S/C1=C\c1ccccc1,7,-4,22,i,14,4,-12,-14,
CCCCc1ccc(S(=O)(=O)N2CCC3(CC2)OCCO3)cc1,0,-2,-1,i,-5,10,-9,5,
COc1cc(NC(=O)c2cc([N+](=O)[O-])ccc2NC(=O)CNCc2ccccn2)cc(OC)c1,6,0,-11,i,-2,-6,14,-32,
O=C(NCc1ccccc1)c1ccc(N2CCC3(CC2)CC(c2ccccc2)=NO3)c([N+](=O)[O-])c1,2,-15,-3,i,-5,15,-4,-9,

# Reprinted at random: 2 records from the list.
SMILES,MT1-MMP act inh,MT1-MMP act inh RFP,CSC inhib,Rce1 inhib,eIF4H inh,PABP FP inh,HIV Env fusion,UUG fidelity,others
O=C(CNc1cccc2ccccc12)c1ccc([N+](=O)[O-])cc1,6,9,-8,i,8,120,3,·,eIF4H inh retest=6;PABP FP inh retest=0
O=C(Cn1cnc([N+](=O)[O-])c1)Nc1cc(Oc2ccc(Cl)cc2Cl)cc([N+](=O)[O-])c1,-5,-20,72,i,-15,-4,·,-13,

# More records
SMILES,MT1-MMP act inh,MT1-MMP act inh RFP,CSC inhib,Rce1 inhib,eIF4H inh,PABP FP inh,HIV Env fusion,UUG fidelity,others
Cn1c(N)c(Sc2ccc([N+](=O)[O-])cc2)c(=O)n(C)c1=O,-1,2,·,i,-6,-1,-2,-16,
Cc1c(-c2cc[n+]([O-])cc2)oc2ccc(Br)cc2c1=O,·,·,-7,i,4,7,44,·,
Cn1c(=O)c2c(nc(CN3CCC(C(N)=O)CC3)n2Cc2c(F)cccc2Cl)n(C)c1=O,3,5,-4,i,3,-2,1,1,
CC1=NNC(=O)/C1=C\c1cn(-c2ccccc2)nc1-c1ccc(Cl)cc1,-45,-31,102*,i,-7,-4,·,-5,
COc1ccccc1/C=C/C=N/NC(=O)CCn1cnc2ccccc21,0,-6,51,i,1,-1,12,-11,
CC(=O)Nc1ccc(CN(C)CC2CCCN(CCc3cccc(C(F)(F)F)c3)C2)cc1 (centres undefined),5,4,8,i,16,?,6,-18,
C/C(=N\O)C(C)/[N+]([O-])=C/c1nc(C)c(C)n1O (centres undefined),3,2,9,i,·,·,·,-14,
Cc1c(-c2ccc(OCc3ccccc3)cc2)nc2ccccc2c1C(=O)O,4,7,7,i,1,9,3,-7,
CC1(C(=O)Nc2cccc3c2CCCC3)CCN1C(=O)c1cccc(F)c1 (centres undefined),1,1,·,·,·,·,-4,10,
Cc1ccc(NC(=O)CC(C)CC(=O)NCc2ccccc2)cc1Cl (centres undefined),7,-1,-7,i,9,13,-21,-10,
CN(CC(=O)Nc1ccc2c(c1)OCCO2)CC(=O)Nc1ccc(F)c(F)c1F,2,0,-17,·,·,·,-48,·,
CC(C)(C)c1ccccc1NC(=O)COC(=O)CN1C(=O)NC2(CCCC2)C1=O,4,5,-10,i,·,·,3,-9,
CC(=O)CSc1nnc(CN2C(=O)CSc3ccc(C(F)(F)F)cc32)n1C,-1,0,-11,i,-4,2,3,·,
CCC(=O)Nc1ccccc1C(=O)OCC(=O)c1ccccc1,5,2,14,i,-3,0,-254,-11,
CCC(=O)N(Cc1cc2c(C)ccc(C)c2[nH]c1=O)C1CCCCC1,-2,-2,9,i,2,-4,·,-1,
COC(=O)C[C@H]1c2ccccc2S(=O)(=O)N1C(C)C,9,-1,-2,i,·,·,-23,-3,
O=C(N/N=C/c1cccc([N+](=O)[O-])c1)c1cc[n+](CCO)cc1,0,1,-5,i,-7,6,-9,-8,
FC(F)(F)c1cccc(-n2c(Cn3nnc4ccccc43)n[nH]c2=S)c1,-1,3,-6,i,-5,21,8,-27,
CCc1ccc(CCC(=O)Nc2ccc(C(=O)O)cc2)o1,-2,2,2,i,21,13,6,-32,
CN(C)c1ccc2nc3ccc(=O)cc-3sc2c1,6,33,·,·,·,·,66*,-15,
O=C1C=C(C#Cc2ccccc2)C[C@@H](c2ccc(F)cc2)C1,-5,-3,·,·,·,·,-4,13,
S=c1nc(C23CC4CC(CC(C4)C2)C3)[nH][nH]1,3,-2,-1,i,-6,0,-8,·,
O=C1CN(C(=O)C2CC2)c2ccccc2N1,-1,-1,-7,i,-14,-10,-19,-9,
CCOC(=O)COc1c(C(=O)OC)sc2ncccc12,-1,-3,-8,i,9,-15,3,·,
Cc1ccc(C)c(-n2c(Cc3cc(=O)[nH]c(=O)[nH]3)nnc2SC(C)C)c1,-4,4,-11,i,-8,-1,-22,-3,
COC(CNC(=O)C(=O)NCC1CCCN1S(=O)(=O)c1cccs1)OC (centres undefined),1,-2,-7,i,·,·,2,-5,
COc1ccc(C(=O)NCc2ccc3c(c2)OCO3)cc1S(=O)(=O)NCc1ccc(Cl)cc1,2,-1,-6,i,0,-7,5,·,
O=c1[nH]c2cc(Cl)ccc2n1-c1ccccc1,5,5,0,i,12,0,·,-2,
O=C(c1ccc(F)cc1)C1CCN(CCn2c(=S)[nH]c3ccccc3c2=O)CC1,·,·,37,i,6,2,·,·,
CCN(CC)CCCN(C(=O)c1ccc(OC)cc1)c1nc(-c2ccc(OC)cc2)cs1,-5,-4,18,i,-11,10,23,10,
N=C1c2ccccc2-c2ccccc21,3,3,·,·,·,·,-2,14,
O=[N+]([O-])c1ccccc1S(=O)(=O)N1CCc2ccccc2C1,-3,5,-11,i,-5,-2,4,·,
CCOC(=O)c1c(-c2ccccc2)n(C)c2ccc(O)cc12,1,-1,-7,i,4,3,-7,-9,
CCN(C(=O)COC(=O)CC(C)c1ccccc1)c1c(N)n(Cc2ccccc2)c(=O)[nH]c1=O (centres undefined),1,3,-7,·,·,·,·,-13,
O=C(N/N=C/c1cc(Br)ccc1O)c1ccccc1Cl,-5,-6,20,i,18,-5,12,-50,
CCOc1ccccc1-c1nc2c(s1)CCc1onc(-c3ccc(OC)cc3)c1-2,0,1,·,i,·,·,-8,-17,
COc1ccc(Nc2nc3ccc(OC)cc3s2)cc1,1,1,·,i,1,1,-13,·,
CCOC(=O)N1CCN(C(=O)c2cccc(N3C(=O)NC4CC3(C)Oc3ccccc34)c2)CC1 (centres undefined),-6,3,-9,i,-1,4,-1,-17,
CCN(CC(=O)Nc1c(F)cccc1F)C(=O)/C=C/c1ccc2ccccc2n1,-4,4,-10,i,·,·,·,-11,
CCc1nc2c(OCc3ccc(C(F)(F)F)cc3)cccn2c1N(C)C(=O)c1ccco1,-14,-6,·,·,·,·,57*,-13,
Cc1ccc(-n2nnc3c(=O)n(Cc4cccc(C)c4)cnc32)cc1,4,4,-9,i,-4,-3,27,-8,
CCN1CCN(c2nc(-c3cccnc3)nc3ccccc23)CC1,-10,1,-8,i,-6,37,-33,-5,
Cn1c(SCC(=O)NC(C)(C)C)nnc1-c1ccc(C(C)(C)C)cc1,1,-3,·,i,-7,18,·,-14,
